Bioassay records from PubChem BioAssay.
D2 agonist – Beta-Arrestin HTS for Positive Allosteric Modulators of the Human D2 Dopamine Receptor: Agonists; activation, % (concentration not given with the values); DiscoveRx PathHunter D2 beta-arrestin, luminescence, 90 min; 100% = 57 uM dopamine signal; hit rate 0.084% among 360,000; in the data active = activation above about 40%; inconclusive = about 15% to 40%; inactive = below about 15%; further: compound concentration not given in the record; the text of the record calls up to 30% inactive
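DiscoveRx PathHunter D2 beta-arrestin cells (2,100/well) attached overnight, then compound-stimulated 90 min at 37 C in HBSS/10 mM HEPES/0.1% Tween-20 buffer; beta-galactosidase complementation read by luminescence after 1 h at ambient temperature. Dopamine 57 uM final (EC100) as control.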
Six1-Eya2 inh – qHTS Assay for Inhibitors of the Six1/Eya2 Interaction; Homeobox protein SIX1 (Homo sapiens) + Protein phosphatase EYA2 (Homo sapiens), …; AlphaScreen GST-Six1/His-Eya2 binding, biochemical; hits give low values; control for the full effect not named in the record; activity change, % (test concentration not listed); hit rate 0.56% among 360,000; AID 651725, 2012; in the data active = activity change below about -65%; inconclusive = about -30% to -65%; inactive = above about -30%; further: on the % scale 0 is the no-effect control and ±100 the full control effect; compound concentration not given in the record
Target sequence (O00167 whole entry, looked up): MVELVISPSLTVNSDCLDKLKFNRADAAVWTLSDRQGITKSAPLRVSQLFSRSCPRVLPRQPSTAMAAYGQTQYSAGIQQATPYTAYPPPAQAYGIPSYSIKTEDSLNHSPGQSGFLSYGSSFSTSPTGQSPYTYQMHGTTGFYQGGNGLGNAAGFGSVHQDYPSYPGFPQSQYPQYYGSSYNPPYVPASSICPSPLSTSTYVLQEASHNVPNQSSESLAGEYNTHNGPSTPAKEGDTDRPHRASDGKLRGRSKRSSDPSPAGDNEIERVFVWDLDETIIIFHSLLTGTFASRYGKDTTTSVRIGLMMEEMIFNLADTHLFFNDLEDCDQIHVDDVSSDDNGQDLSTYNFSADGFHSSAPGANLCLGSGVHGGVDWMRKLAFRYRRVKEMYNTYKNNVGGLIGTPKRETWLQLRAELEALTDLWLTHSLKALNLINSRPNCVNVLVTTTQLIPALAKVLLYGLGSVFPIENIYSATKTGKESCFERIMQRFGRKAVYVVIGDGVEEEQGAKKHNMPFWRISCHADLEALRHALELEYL
Target sequence (Q15475 whole entry, looked up): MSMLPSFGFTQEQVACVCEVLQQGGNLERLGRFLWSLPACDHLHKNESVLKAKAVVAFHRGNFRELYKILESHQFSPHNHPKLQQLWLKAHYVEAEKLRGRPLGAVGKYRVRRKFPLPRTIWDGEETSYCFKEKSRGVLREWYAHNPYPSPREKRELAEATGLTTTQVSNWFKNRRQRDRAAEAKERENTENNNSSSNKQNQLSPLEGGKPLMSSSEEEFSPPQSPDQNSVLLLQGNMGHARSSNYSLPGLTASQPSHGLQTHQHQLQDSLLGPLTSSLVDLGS
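Homogeneous AlphaScreen proximity assay pairing GST-Six1 with His-tagged Eya2 (added as 5X mix: 250 nM and 500 nM) in 50 mM Tris pH 8.0, 300 mM NaCl, 1 mM TCEP. Glutathione donor and nickel acceptor beads; 1 h, 37 °C, dark.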
D2 PAM – Beta-Arrestin HTS for Positive Allosteric Modulators of the Human D2 Dopamine Receptor: Potentiators. potentiation, % (test concentration not listed). AID 624464, 2012. DiscoveRx D2 beta-arrestin cells, luminescence, 90 min; 100% = 57 uM dopamine signal. D(2) dopamine receptor (Homo sapiens), P14416. hit rate 0.23% among 360,000; active = potentiation of 50% or more; inconclusive = 30% to 50%; inactive = 30% or less;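 further: compound concentration not given in the record; tested on top of an EC20 dose of dopamine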
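PathHunter beta-arrestin assay in DiscoveRx D2 cells. Compounds were added with an EC20 of dopamine (50 nM final) for 90 min at 37 deg C. Luminescence was read 1 h after detection reagent, with 57 uM dopamine as the EC100 control.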
PINK1 expr mod – A Quantitative High throughput Screen to Identify Chemical Modulators of PINK1 Expression. PINK1 immunofluorescence, high-content cytometry, 24 h. Potency, µM (doses to about 76.6 µM), for inactives: at the top dose activation (PINK1 increase), usual class: activators. hit rate 0.2% among 410,000. AID 624263, 2012; active = well fitted activation curve with a large enough effect; inconclusive = small, poorly fitted or top-dose-only effect; inactive = flat fitted curve, though single readings scatter; cell line not stated here;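 further: potency means the concentration at half of the fitted maximal effect; % of control where 0% means no effect; nearly all actives have a fitted effect of over 65% in size; a mitochondrial uncoupler was the plate control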
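Cells are seeded, rested 12 hours, then given compound at five concentrations or DMSO for 24 hours. After fixation, blocking and antibody staining, PINK1 amount and mitochondrial localization are scored; CCCP serves as control.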
TRPML1 ag – qHTS for Agonists of the Human Mucolipin Transient Receptor Potential 1 (TRPML1); Mucolipin-1 (Homo sapiens), Q9GZU1; TRPML1-expressing cells, Ca2+ dye fluorescence, FDSS; host cell line not named in the record; reference of the full effect not given here; activation, % (concentration not given with the values); hit rate 0.12% among 410,000; AID 624414, 2012; in the data active = activation above about 50%; inconclusive = about 30% to 50%; inactive = below about 30%; further: 0% is about no effect; the text of the record puts the active cut at 80%
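Tetracycline-induced TRPML1-DL cells are seeded and incubated overnight before loading with a no-wash Ca2+ dye and quencher. Agonist activity is taken from the 110 s fluorescence read following compound pin-transfer on an FDSS, before EC80 54-4 challenge.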
CtBP-E1A blk – qHTS Assay for Inhibitors of the CtBP/E1A Interaction. hit rate 0.49% among 340,000. activity change, % (test concentration not listed). AID 651724, 2012. CtBP / adenovirus E1A interaction (AlphaScreen). AlphaScreen GST-E1A/His-CtBP binding, 1536-well; hits give low values; control for the full effect not named in the record; in the data active means activity change below about -65%; inconclusive means about -30% to -65%; inactive means above about -30%; further: on the % scale 0 is the no-effect control and ±100 the full control effect; compound concentration not given in the record
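GST-E1A and His-tagged CtBP (125 nM each as 5X stock) were preincubated with pin-transferred compound for 2 h at 37 °C in the dark, then glutathione donor and nickel acceptor beads were added for 1 h before AlphaScreen reading.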
* hit, by the source's call; ? = inconclusive; nt = not tested or not shown; & = joins results of further samples; [ ] = remark or other dose. The order is random; 1.3% or so of the library scored in one or more.

#	Compound	D2 PAM	TRPML1 ag	D2 agonist	Six1-Eya2 inh	PINK1 expr mod	CtBP-E1A blk
1	COc1cc(OC)cc(C(=O)N[C@H](C(=O)OCn2nnc3ccccc3c2=O)C(C)C)c1	-7.1	-0.4	-3.7	0.2	-0.1%	2.7
2	CC(C)N(Cc1nccn1C)C(=O)C1CCC(=O)N(CCc2ccccc2)C1 (configuration not stated)	-2.8	-0.4	-2.3	-1.6	-0.1%	-0.8
3	CCCCC(CC)CNC(=O)c1[nH]c(C)c(C(C)=O)c1C (configuration not stated)	-6.8	2.0	-1.7	-3.6	3.5%	-24.7
4	Cc1cc(C)cc(Nc2nc3c([nH]2)c(=O)n(C)c(=O)n3C)c1	1.1	2.3	-4.9	-12.7	-0.6%	nt
5	Cc1cc(=O)oc2c3c(cc(OCC(=O)NCc4cccnc4)c12)OC(C)(C)CC3	6.0	nt	-2.3	-17.3	2.1%	-14.0
6	CC(C)c1ccccc1-n1c(SCC(=O)c2ccc3c(c2)NC(=O)CO3)nc2ccccc2c1=O	?	3.3	-1.3	-8.3	6.1%	-3.7
7	C/C(=N\NC(=O)c1ccc(-c2ccccc2)cc1)c1ccco1	-8.1	-0.6	-3.2	-0.3	-0.3%	-3.9
8	O=C(NCc1ccccc1)N1CCC(n2cnc3cc(F)ccc32)CC1	0.2	-0.7	-2.5	0.5	-4.3%	5.8
9	CCCCc1c(-c2ccccc2OC)ncn1Cc1cccc(-c2ccccc2)c1	nt	1.3	nt	-14.8	?	-25.9
10	COc1ccc(S(=O)(=O)N2CCOCC2)cc1NC(=O)c1ccc(OCC(C)C)c(OC)c1	-0.3	0.0	-2.2	-8.0	4.9%	nt
11	CCN(CC(=O)NCc1cccs1)C(=O)c1ccc(N(C)S(=O)(=O)c2ccc(C)cc2)cc1	0.3	1.8	-1.2	5.0	1.6%	-21.0
12	CN(C)Cc1csc(NC(=O)Nc2cccc(Cl)c2)n1	-9.5	0.4	-3.4	?	4.0%	-4.0
13	COc1cc(C(=O)NCCNc2nc3ccc(C)cc3cc2C#N)cc(OC)c1OC	-2.1	-0.2	-1.5	3.4	-1.3%	-12.1
14	CCOC(=O)c1nn(-c2ccc(F)cc2)c(=O)c2c(N)scc12	-10.7	-0.6	6.6	-11.1	2.5%	-19.2
15	[O-][N+]1=C(c2cccs2)CN(O)C1	-2.0	1.8	-3.6	0.0	-0.9%	-2.6
16	O=C(NC1CCCN(Cc2ccc(Cl)cc2)C1)C1CCC1 (configuration not stated)	-22.2	-0.2	2.3	3.4	0.0%	-7.0

Two entries from above, with two lines to a compound:
Below each compound – D2 PAM | TRPML1 ag | D2 agonist | Six1-Eya2 inh | PINK1 expr mod | CtBP-E1A blk
#11 CCN(CC(=O)NCc1cccs1)C(=O)c1ccc(N(C)S(=O)(=O)c2ccc(C)cc2)cc1
→ 0.3 | 1.8 | -1.2 | 5.0 | 1.6% | -21.0
#12 CN(C)Cc1csc(NC(=O)Nc2cccc(Cl)c2)n1
→ -9.5 | 0.4 | -3.4 | ? | 4.0% | -4.0

(listing goes on)
#	Compound	D2 PAM	TRPML1 ag	D2 agonist	Six1-Eya2 inh	PINK1 expr mod	CtBP-E1A blk
17	CCCn1c2ccccc2c2cnn(CC(=O)NCCCN3CCCC(C)C3)c(=O)c21 (configuration not stated)	-31.3	1.4	-1.1	-9.3	-0.6%	-10.2
18	O=C(COc1ccc2c(c1)OCO2)Nc1nnc(Cc2ccccc2)s1	-8.2	-0.1	-1.7	6.6	0.4%	-1.1
19	Cc1ccnc(NC(=S)NC(=O)/C=C/c2ccc(Cl)cc2)c1	6.3	0.8	-2.7	-1.2	3.5%	-0.9
20	O=C(O)[C@H](Cc1ccccc1)NC(=O)N1CCN(c2cccc(C(F)(F)F)c2)CC1	-16.1	2.4	-1.4	0.1	1.6%	nt
21	CC(C)CCCCCCNC(=S)Nc1ccc(S(=O)(=O)N2CCOCC2)cc1	?	0.3	6.5	5.9	?	0.0
22	Cc1c(CCOC(=O)c2ccc(Cl)cc2Cl)sc[n+]1CC(=O)c1ccccc1	-29.4	0.7	-7.1	-5.9	-2.0%	1.6
23	CC(=O)NN1C(=O)c2ccccc2NC1c1ccccc1 (configuration not stated)	-0.2	0.3	-0.9	-1.7	-0.6%	-0.1
24	COc1ccc(-c2cc(C(F)(F)F)nc(SCC(=O)NCc3cccs3)n2)cc1	-6.1	3.6	4.5	2.3	?	10.7

Grouped by structure, those above containing an aryl thioether with sulfur outside any ring.
#	Compound	D2 PAM	TRPML1 ag	D2 agonist	Six1-Eya2 inh	PINK1 expr mod	CtBP-E1A blk
6	CC(C)c1ccccc1-n1c(SCC(=O)c2ccc3c(c2)NC(=O)CO3)nc2ccccc2c1=O	?	3.3	-1.3	-8.3	6.1%	-3.7
24	COc1ccc(-c2cc(C(F)(F)F)nc(SCC(=O)NCc3cccs3)n2)cc1	-6.1	3.6	4.5	2.3	?	10.7

(further entries)
#	Compound	D2 PAM	TRPML1 ag	D2 agonist	Six1-Eya2 inh	PINK1 expr mod	CtBP-E1A blk
25	COc1ccc(C)cc1NC(=S)NNC(=O)c1c(Br)cnn1C	-7.2	0.8	-3.7	-9.1	1.5%	4.2
26	CCCCOc1ccc(C(NC(=O)OCC)NC(=O)OCC)cc1	-13.0	0.6	-1.0	2.7	2.5%	-0.1
27	Nc1[nH]c(C(=O)c2ccccc2)c(-c2ccncc2)c1C(=O)NCc1ccc(Cl)cc1	nt	-0.9	nt	20.4	2.6%	23.5
28	COc1cccc2cc(C(=O)C3=C(O)C(=O)N(CCN4CCOCC4)C3c3ccc(Cl)cc3)oc12 (configuration not stated)	-8.5	-0.2	-2.6	-4.6	-0.4%	-1.7
29	CC(NS(=O)(=O)c1ccc(Cl)cc1)C(=O)OCC(=O)c1ccc[nH]1 (configuration not stated)	0.3	-0.3	3.0	2.6	1.6%	0.6
30	O=C(CN1CC[n+]2c(-c3ccccc3)csc21)c1ccc(Br)cc1	-22.7	-0.7	-4.5	-8.2	2.9%	nt
31	COc1ccc(C(C2C(=O)CC(C)(C)CC2=O)C2C(=O)CC(C)(C)CC2=O)cc1	-3.3	0.7	-1.6	2.1	1.7%	4.7
32	CCn1c(SCC(=O)N2CCN(c3ccccc3)CC2)nc2c([nH]c3ccccc32)c1=O	-5.9	-0.7	-5.5	-2.5	2.3%	5.4
33	Cc1cccc(-n2ncc3c2CCCC3NC(=O)c2ccncc2)c1C (configuration not stated)	-21.1	-0.5	-2.5	11.5	-0.1%	-5.5
34	Cc1ccc(NC(=O)C2=COCCO2)cc1S(=O)(=O)N1CCOCC1	-2.3	-0.6	9.9	-2.3	-2.0%	20.1
35	COc1cccc(/C=N/NC(=O)c2csc(-n3nc(C)cc3C(F)(F)F)n2)c1	-2.9	-0.1	-3.2	1.4	0.5%[38.3 µM]	4.9
36	COCCN1C(=O)c2ccc(C(=O)NCc3ccco3)cc2C1=O	-5.8	0.0	-2.9	-7.3	-1.6%	-2.2
37	N#Cc1cccc(NC(=O)CSc2nnc(C3CC3)n2C2CC2)c1	-8.2	-0.8	-4.1	-3.1	0.9%	nt
38	CC(=O)Nc1ccc(NC(=O)C2(C)Cc3c(-c4cccc(C(F)(F)F)c4)ccnc3O2)cc1 (configuration not stated)	-19.2	-0.8	-5.2	-0.1	2.5%	-1.2
39	CSCCC(NC(=O)COc1ccccc1)C(=O)OCCOc1ccc(F)cc1 (configuration not stated)	-22.1	4.7	-5.0	-1.2	2.4%	-13.8
40	CCCN(C(=O)c1cn(C)c(=O)c2ccccc12)c1ccccc1C	-7.9	-1.0&-0.1	-2.4	0.3	1.0%&2.9%	7.8
41	Cc1ccccc1NC(=O)CN1CCC(C(=O)c2ccc3c(c2)OCCO3)CC1	-9.5	0.2	-1.0	-3.8	0.8%	1.1
42	NC(=O)c1nc(-c2ccccc2)c(-c2ccccc2)[nH]c1=O	-10.7	-0.3	-7.0	-8.1	-1.1%	-1.8
43	COc1ccc(-c2nc3ccccc3c(=O)n2O)cc1	-7.4	-0.4	-1.5	-1.1	0.8%	-8.7
44	Oc1cccc(NC(=S)Nc2ccc(SC(F)F)cc2)c1	-3.3	-0.7	2.0	-2.0	?	-5.0
45	Cc1nnc(SCCn2c(N3CCCC(C)C3)nc3c2c(=O)n(C)c(=O)n3C)s1 (configuration not stated)	-1.5	-0.3	-4.0	-2.3	-1.4%	-3.4
46	COc1cc(CNC2CCCC2)cc(OC)c1OC	-7.8	3.6	-0.3	3.3	-0.1%[38.3 µM]	-14.6
47	Nc1cc2[nH]c(=O)c3ccccc3c2cc1[N+](=O)[O-]	-16.6	-0.5	-4.7	-72.0*	-5.9%	-72.2*
48	COc1cc(/C=C/C(=O)O)ccc1OCc1ccccc1C#N	2.4	-0.2	1.8	6.8	-1.7%	-11.2
49	CSCCC(NC(=O)OC(C)(C)C)C(=O)NC(C(=O)NC(CC(C)C)C(N)=O)C(C)C (configuration not stated)	25.1	0.5	0.4	2.7	nt	-3.1
50	Cc1ccccc1-c1cnc(C(O)c2cc(Cl)cc(Cl)c2)[nH]1 (configuration not stated)	-11.4	1.3	-1.6	-11.8	18.1%	-8.5
51	O=C(C[n+]1cc(-c2ccc(F)cc2)n2c1CCC2)c1cccs1	-12.7	2.0	-2.4	6.4	-0.9%	-1.1
52	O=C(/C=C/c1ccc([N+](=O)[O-])cc1)NCc1ccco1	11.6	-0.5	0.9	-9.7	-0.2%	-5.9
53	CC1=NNC(=O)C1CCC(=O)N/N=C/c1c(Cl)cccc1Cl (configuration not stated)	-1.7	1.4	-4.3	4.9	0.3%	1.7
54	O=C(COc1ccccc1[N+](=O)[O-])N/N=C/C=C/c1ccco1	-11.5	-0.4	-2.2	-17.5	0.5%	-11.9
55	CC(C)(C)c1cc(=O)n2c(nc3ccccc32)[nH]1	-0.3	-0.1	-3.8	2.6	1.5%	6.7
56	Cn1nc(NC(=O)C(F)(F)F)c2ncc(-c3ccc(Cl)cc3)nc21	-19.3	0.1	-2.6	-10.1	-0.8%	nt
57	CCN(CC(=O)NCc1ccc(Cl)cc1)C(=O)c1cccc(S(=O)(=O)Nc2ccc(OC)cc2)c1	-7.0	-0.9	-1.2	1.2	-0.7%	-4.7
